Sa helicase inh: blocks Staphylococcus aureus DNA helicase; AID 485395; purified S. aureus helicase, fluorescence unwinding assay; about half of the hits fall short of the stated cut; inhibition, %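 (tested at about 80 µM)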; 120,000 compounds, 0.05% hits;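 active = both duplicates at 50% or more, or one of them with a favoured structure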;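 note: 0% = mean of negative control wells and 100% = mean of positive control wells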
MgrA-DNA mod: S. aureus MgrA-DNA binding modulation. fluorescence polarization. inhibition, %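 (about 10 µg/mL by stock and volumes)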. 84,000 compounds, 0.13% hits. AID 602314;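 active = above 50% in either of two replicates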;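 note: 0% = protein plus DNA without compound and 100% = DNA alone without protein; higher means less MgrA bound to DNA so lower polarization; one replicate is shown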
Active calls of the source: *; / = no result given; & = joins results of further samples. An excerpt, so the mix of outcomes need not match the whole.

The first three entries, to show the layout:
Fields – Sa helicase inh, MgrA-DNA mod
> O=C(CN1CCc2ccccc21)NC(=O)Nc1ccc2c(c1)OCCO2
  -5, /
> CCN(C(=O)c1cc2c(=O)oc3ccccc3c2s1)c1cc(OC)ccc1OC
  9, /
> CN1CCN(C(=S)c2ccc(F)cc2)CC1
  9, 5.6

Main list, from the first entry:
Fields – Sa helicase inh, MgrA-DNA mod
> O=C(CN1CCc2ccccc21)NC(=O)Nc1ccc2c(c1)OCCO2
  -5, /
> CCN(C(=O)c1cc2c(=O)oc3ccccc3c2s1)c1cc(OC)ccc1OC
  9, /
> CN1CCN(C(=S)c2ccc(F)cc2)CC1
  9, 5.6
> Nc1cc(-c2nn[nH]n2)ccc1F
  6, /
> Cc1ccc(SCC(=O)Nc2cc(C)on2)cc1
  2, 1.4
> COc1cc(C(=O)OC(Cc2ccccc2)C(F)(F)F)cc(OC)c1OC (stereo not drawn)
  /, -0.8
> CC(=O)Nc1sc2c(c1-c1nsc(=O)o1)CCCC2
  5, 6.4
> CCOC(=O)c1ccccc1NC(=O)CSCc1ccccc1
  -9, 2.8
> O=c1cc(-c2cccc(O)c2)oc2ccc(O)cc12
  24, -5.3
> CC1(C)CC(NCc2cn(CCC#N)nc2-c2ccccc2)CC(C)(C)N1
  12, /
> CCOC(=O)N1CCN(Cn2nc(-c3ccc(Cl)cc3)n(Cc3ccccc3)c2=S)CC1
  7, -0.9
> CSC(SC)=C(C#N)c1ccccn1
  /, -2.6
> CN(C)C(CNC(=O)CN1C(=O)c2ccccc2C1=O)c1ccccc1 (stereo not drawn)
  -8, /
> CCC(=O)N1CCN(c2nnc(-c3ccccc3)c3ccccc23)CC1
  14, 2.2
> CC(=O)Nc1nc(-c2cc(Cl)sc2Cl)cs1
  14, /

Shown field by field: 4 of the compounds above.
CC1(C)CC(NCc2cn(CCC#N)nc2-c2ccccc2)CC(C)(C)N1
  Sa helicase inh: 12; MgrA-DNA mod: /

CCOC(=O)N1CCN(Cn2nc(-c3ccc(Cl)cc3)n(Cc3ccccc3)c2=S)CC1
  Sa helicase inh: 7; MgrA-DNA mod: -0.9

CSC(SC)=C(C#N)c1ccccn1
  Sa helicase inh: /; MgrA-DNA mod: -2.6

CN(C)C(CNC(=O)CN1C(=O)c2ccccc2C1=O)c1ccccc1 (stereo not drawn)
  Sa helicase inh: -8; MgrA-DNA mod: /

Next part.
Fields – Sa helicase inh, MgrA-DNA mod
> O=c1c2ccccc2c(/C=N/c2n[nH]c(CCCO)n2)c(O)n1-c1ccccc1Cl
  4, /
> O=C1CC(c2ccc(Cl)cc2)CC(=O)N1
  /, -1.4
> CC(C)(C)c1ccc(-c2noc(CSc3n[nH]c(=O)n3-c3cccnc3)n2)cc1
  /, -1.2
> COC(=O)c1ccc(S(=O)(=O)NCCNc2cccc(C(F)(F)F)n2)n1C
  /, 1.8
> CSC(=S)Nc1ccc(-c2nc3ccc(C)cc3s2)cc1
  -11, 1.4
> C/S(=N\S(=O)(=O)c1cccc2nsnc12)c1ncc(Cl)cc1C(F)(F)F (stereo not drawn)
  /, -2.5
> COc1ccc(N2C(=O)Cc3ccc(OC)cc3C2=O)cc1
  /, -1.5
> CCc1ccc(NC(=O)/C(C#N)=C/c2ccc(-c3ccc(S(=O)(=O)N4CCOCC4)cc3)o2)cc1
  -23, /
> CN(C(=O)CSCc1ccco1)c1ccccc1
  4, -0.6
> O=C(Cc1n[nH]c(=O)c2ccccc12)NC1=NCCS1
  -9, /
> CCN(CC)S(=O)(=O)c1ccc(C(=O)Nc2ccccc2-c2nc3ccccc3s2)cc1
  /, -1.2
> CCCCn1c(C(C)NC(=O)c2ccc(OC)c(OC)c2)nc2ccccc21 (stereo not drawn)
  -8, /
> Cc1ccccc1OC(C)C(=O)NCc1ccccc1 (stereo not drawn)
  -1, 1.1
> CCCNC(=O)c1oc2ccc3c(c2c1C)C(=O)CC(C)(C)O3
  2, -1.8
> N=C(N)SCc1cccc(Cl)c1
  /, -2.8
> O=C(c1cnn2c(C(F)(F)F)cc(-c3ccccc3)nc12)N1CCOCC1
  10, /
> O=C(O)CCSc1cccc2ccccc12
  /, -1.1
> C=CCN(c1ccccc1)S(=O)(=O)c1ccc(F)c(C(=O)Nc2ccc(C(C)C)cc2)c1
  8, 0.0
> CCOC(=O)c1csc(Cn2nc(C)c(Br)c2C)n1
  /, -0.7
> CC1(C)OC2C(O1)[C@@H](CO)O[C@H]2n1cnc2c(N)ncnc21 (stereo partly drawn)
  -32, /
> Cc1ccc(N2C(=O)CC(Sc3ccccc3C(=O)O)C2=O)c(C)c1 (stereo not drawn)
  2, /
> COc1ccc(C(N)=CC(=O)C(C)(C)C)cc1
  7, -0.8
> N=C(N)SCC1COc2ccccc2O1 (stereo not drawn)
  14, /
> COc1ccc(N=Cc2ccccc2OCc2ccccc2)cc1
  14, -2.0
> O=C(CN1C(=O)COc2ccc(Cl)cc21)N1CCCC1
  5, 6.2
> O=C(CSc1ccccc1)N1CCCCC1
  7, 5.5
> Cc1cc(-c2nnc(CSc3nc4ccc(Cl)cc4[nH]3)o2)c(C)o1
  16, /
> COc1ccc(CN(CCN(C)C)c2ncccn2)cc1
  /, 0.9
> O=C(Nc1ccccc1C(F)(F)F)C1Sc2nnc(-c3ccccc3)n2NC1c1ccc(F)cc1 (stereo not drawn)
  8, 1.4
> Cc1ccc(C)c(/C(O)=C2\C(=O)C(=O)N(CCN(C)C)C2c2cccc(Br)c2)c1 (stereo not drawn)
  13, 1.9
> O=C1CNc2c(c(=O)oc3ccccc23)N1
  38, /
> COC(=O)c1[nH]c2sc3c(c2c1N)CCCC3
  -13, /
> CC(C)S(=O)(=O)c1cnc(-c2ccc(Cl)cc2)nc1N
  /, -0.7
> O=C(OCc1ccc2c(c1)OCO2)c1cc2ccccc2oc1=O
  12, -2.1
> COc1cc(C2NC(=O)NC(C)=C2C(=O)OCc2ccc(C)cc2)cc(OC)c1OC (stereo not drawn)
  /, -1.4
> O=S(=O)(/N=C(\N=C1CCN(c2ccccc2)N1)c1ccccc1)c1ccccc1
  -7, /
> O=C(O)CS/C(=N/S(=O)(=O)c1ccccc1)Nc1cccc(C(F)(F)F)c1
  /, -3.8
> COc1cccc(C(=O)N2CCN(Cc3ccccc3C(F)(F)F)CC2)c1OC
  19, -5.4
> CN1C(=O)c2ccccc2C(C(=O)NCc2ccco2)C1c1cn(C)c2ccccc12 (stereo not drawn)
  17, 5.6
> CCCN(Cc1nnc(-c2ccccc2Cl)o1)C(=O)c1nc(-c2ccccc2)n(-c2ccccc2)n1
  -5, /
> COc1ccc(-n2ncc(C(=O)N3CCN(C)CC3)c2C)cc1
  /, -1.9
> Cc1cccc(-c2ocnc2C(=O)N2CCN(C(=O)c3cccs3)CC2)c1
  17, -0.4
> COc1ccc(C(=O)N(CCc2ccccc2)Cc2ccccc2)c(OC)n1
  15, -2.1
> O=S(=O)(c1cc(C(F)(F)F)cc(C(F)(F)F)c1)n1cc2c(n1)CCOC2
  /, 0.6
> CCc1ccc(NC(=O)c2ccccc2N)cc1
  20, -0.1

Additional structures:
structure	Sa helicase inh	MgrA-DNA mod
O=C(NCc1ccco1)NC1CCCCC1	/	2.9
O=C(OCc1cccs1)C1CC1	-15	-0.8
O=C1CS/C(=N/N=C/c2ccccc2)N1c1ccc(O)cc1	6	0.4
NC(=O)C1CC(O)CN1c1nc(-c2cccnc2)nc2ccccc12 (stereo not drawn)	-10	/
COc1ccc(-c2cc(C(=O)N3CCCC3)no2)cc1S(=O)(=O)N1CCOCC1	-18	/
CCOc1ccccc1NC(=O)NCCSCc1ccco1	/	-1.6
N#CC1=C(N)SC(N)=C(C#N)C1Cc1ccccc1	-111	/
O=C(CC(c1ccccc1)c1ccccc1)N1CCOCC1	-12	0.6
COc1ccc(/C=N/c2oc(-c3cccs3)c(-c3cccs3)c2C#N)cc1	-18	/
CCCCN(CC)S(=O)(=O)c1ccc(C(=O)Nc2nnc(-c3ccc(Cl)s3)o2)cc1	10	5.1
CC(=O)NS(=O)(=O)c1ccc(N2C(=O)CC(Sc3nccc(C)n3)C2=O)cc1 (stereo not drawn)	0	-0.5
COC(=O)Nc1cc(OC)cc(C(F)(F)F)c1	/	1.1
S=c1[nH]nc(-c2cccnc2)n1/N=C/C=C/c1ccco1	13	2.3
Cc1cc(C(=O)CSC2=N/C(=C\c3ccco3)C(=O)N2c2ccc(OC(F)F)cc2)c(C)n1CC1CCCO1 (stereo not drawn)	-3	/
Cc1ccc(C)n1CCN1CCN(S(=O)(=O)Cc2ccc(Cl)cc2)CC1	/	0.9
O=C(Oc1ccc(C=Nc2ccc(F)cc2)cc1)c1cccs1	7	-0.3
COc1cc(-c2nc3ccccc3c(=O)n2NC(=O)c2cc(C)c(C)cc2C)cc(OC)c1OC	/	-1.7
O=c1oc2ccccc2n1Cc1nnc(-c2ccccc2)o1	-6	1.6
O=C(/C=C/c1ccccc1)N1CCN(c2ccc(N3CCCCC3)nn2)CC1	9	/
NC(=O)C1c2ccccc2Oc2ccccc21	/	0.6
CC(C)(C)NC(=O)N1CCN(c2ncnc3scc(-c4ccccc4)c23)CC1	/	-2.6
O=C(c1ccccc1)c1ccc(F)cc1	/	-0.2
NC(=O)c1ccsc1NC(=O)c1ccc2c(c1)OCCO2	17	/
COc1ccccc1N1C(=O)C(Cc2ccccc2)N=C1N(C)CCCc1ccco1 (stereo not drawn)	8	/
CCCSc1nc2c(c(=O)n1CC)SC(C)C2 (stereo not drawn)	5	-0.8
Cc1ccccc1Nc1c(-c2ccc(O)cc2)nc2sccn12	4	0.2
CCN(CC)C(=O)COc1ccc(-c2nnc(N3CCCCC3)c3ccccc23)cc1	-35	/
COc1ccc(C(=O)N2CCC(C(=O)O)CC2)cc1	-2	-2.3
Oc1ccccc1OCCCCCOc1ccccc1O	31	/
COc1ccc(NC(=O)c2c(C)oc3c(F)c(F)c(F)c(F)c23)c(OC)c1	/	0.6
O=C1CC(C(=O)Nc2ccccc2)N=C(Nc2nc3ccccc3s2)N1 (stereo not drawn)	8	0.4
O=C1OC(c2ccccc2)/C(=C(\O)c2ccccc2)C1=O (stereo not drawn)	0	0.0
Cc1nn(CC(=O)N2CCCC2)c(=O)c2nn(-c3ccccc3)c(C)c12	-14	/
Cc1sc2nc(C(=O)Oc3ccc(F)cc3)cc(N)c2c1C	14	-2.1
N#Cc1c(C(F)(F)F)cc(-c2ccccc2)nc1SCC(=O)N1CCCCC1	5	1.4
O=c1c(Cl)c(NCCc2ccccc2)cnn1-c1ccccc1	2	-1.7
COc1ccc(-c2c(C#N)c(SCC(=O)c3ccccc3)nc3c2C(=O)CC(C)(C)C3)cc1	7	0.2
CN1CCC(N(C)C(=O)Nc2cccc3ccccc23)CC1	12	-1.6
COc1ccc(Cc2nnc(C(=O)NCCc3ccccc3)o2)cc1OC	25	/
COC(=O)c1cc(NC(=O)N2c3ccccc3Sc3ccccc32)cc(C(=O)OC)c1	13	0.4
O=C(NCCN1C(=O)S/C(=C\c2cccnc2)C1=O)c1cccs1	2	/
COc1ccc(CN(Cc2cccs2)C(=O)c2ccccc2-n2cnnn2)cc1OC	7	/
CCOC(=O)C1SC(c2ccc(Cl)cc2)C(C#N)C1(O)c1ccccc1 (stereo not drawn)	/	0.1
NC(=O)CSc1nnc(-c2c[nH]c3ccccc23)n1CC1CCCO1 (stereo not drawn)	1	/
CCC(=O)N1CCc2cc(S(=O)(=O)CCC(=O)N3CCN(c4ccccc4)CC3)ccc21	-7	/
NC(=O)c1c(Nc2nc3c(F)cccc3s2)sc2c1CCCC2	-51	/
Cc1cccc(CC2SC(=Nc3ccc(Br)cc3)NC2=O)c1 (stereo not drawn)	32	0.6
CC1CCCC(NC(=O)CN2N=C(c3ccc(Cl)cc3)CCC2=O)C1C (stereo not drawn)	4	/
CCOc1cc2[nH]c(=O)n(CCCC(=O)NCCc3ccccc3)c(=O)c2cc1OCC	-1	/
CN1/C(=C\C(=O)C2CCCCC2)C(C)(C)c2ccccc21	-4	1.3
C=CCn1c(NC(C)c2cc(Cl)ccc2O)nc2ccccc21 (stereo not drawn)	6	-0.2
COc1ccccc1N1CCN(Cc2nc(-c3ccc(Br)cc3)cs2)CC1	/	-2.4
CC(O)c1nc2ccccc2n1C(=O)c1ccc(OCc2ccccc2)cc1 (stereo not drawn)	-10	-1.4
CCc1[nH]nc2c1C1(C(=O)Nc3ccc(Cl)cc31)C(C#N)=C(N)O2 (stereo not drawn)	5	-1.1
COc1ccc(S(=O)(=O)Nc2nc(O)c(C3=c4cc([N+](=O)[O-])ccc4=NC3=O)s2)cc1	/	31
Cc1cccc(N2C(=O)CC(c3cn(C)c4ccccc34)C2=O)c1 (stereo not drawn)	-1	-2.1
NC(=O)c1ncc(C(F)(F)F)cc1Cl	/	-0.7
COc1ccc(CC(C)(N)C(=O)O)cc1OC (stereo not drawn)	0	0.3&0.6
O=S1(=O)CCC(Cc2n[nH]c(=S)o2)C1 (stereo not drawn)	-25	/
CCOc1ccc(N(CC)C(=O)COc2cc(=O)n(CC)c3ccccc23)cc1	-4	0.9
NC(=O)c1cccc(CC(=O)c2ccccc2)c1	/	-5.2
CC(=O)Nc1ccc(Cl)c(-c2nc3cc(Cl)ccc3o2)c1	16	/
COC(=O)c1scc2c(N3CCC(n4cccc4)CC3)cc(C(F)(F)F)nc12	/	-1.9

Two records drawn at random from the list so far:
structure	Sa helicase inh	MgrA-DNA mod
O=C(NCCN1C(=O)S/C(=C\c2cccnc2)C1=O)c1cccs1	2	/
CCOc1ccc(N(CC)C(=O)COc2cc(=O)n(CC)c3ccccc23)cc1	-4	0.9

Assay outcomes from PubChem BioAssay.
